Screening results deposited in PubChem by National Center for Advancing Translational Sciences (NCATS).
ClpP mod – qHTS Assay for Activators of ClpP; Potency, µM (doses to about 57.5 µM), inactives show at the highest dose activity change, negative = active; AID 651965, 2013; purified B. subtilis ClpP, FRET peptide cleavage, 20 min; actives 1.9% (n = 340,000); active = well fitted falling curve with a large enough effect; inconclusive = small, poorly fitted or top-dose-only effect; inactive = no such curve, though single readings can be large or run the other way; note: potency is the fitted concentration of half-maximal effect; the source files actives as falling curves though it sought activators and does not explain the sign; nearly all actives have a fitted effect of over 65% in size; many hits overshoot -100%
Target sequence (P80244 whole entry, looked up): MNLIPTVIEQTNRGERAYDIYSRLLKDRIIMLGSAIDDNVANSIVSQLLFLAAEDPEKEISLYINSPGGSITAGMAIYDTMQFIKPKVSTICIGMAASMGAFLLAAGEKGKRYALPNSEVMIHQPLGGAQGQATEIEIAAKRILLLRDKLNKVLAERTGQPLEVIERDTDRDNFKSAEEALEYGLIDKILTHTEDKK
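FRET quenching reversal measured ClpP activation: 10 microg/mL B. subtilis ClpP at pH 8 with the FRET-FV decapeptide, read at 430 nm after 320 nm excitation. The 20-min minus 0-min signal was scaled between DMSO/no-enzyme wells and ADEP (5.8 microM final).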
Sfp PPTase inh – blocks B. subtilis Sfp PPTase activity; actives 3.5% (n = 310,000); Potency, µM, for the others: max response, negative = inhibition, hits mostly inhibitors; AID 1490; Q9F4F7; Biochemical Sfp PPTase activity, qHTS; active = well fitted inhibition curve with a large enough effect; inconclusive = small, poorly fitted or top-dose-only effect, or another doubt; inactive = no such curve, though single readings can be large or run the other way;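 note: the enzyme is Sfp with the accession as filed and its product quenches rhodamine fluorescence; potency is the fitted concentration of half-maximal effect; 0% = enzyme reaction without inhibitor and -100% = no enzyme wells; top concentration of the series not given in the record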
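After 15 min at room temperature with compound, 15 nM Sfp received 5 uM rhodamine-CoA plus 12.5 uM BHQ-2-ybbR (50 mM Hepes pH 7.6, 10 mM MgCl2). Rate came from the fluorescence difference over 30 min, ex 525/em 598 nm.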
TRPV1 potentiator – enhances activation of the human vanilloid receptor TRPV1; Q8NER1; TRPV1-expressing cells, Fluo-8 calcium influx, capsaicin EC20 potentiation; host cell line not named in the record; control for the full effect not named in the record; potentiation, % at 8.33 µM; actives 0.02% (n = 320,000); active means potentiation above 80%; inconclusive means 30% to 80%; inactive means below 30%; note: 0% is about no effect
Target sequence (Q8NER1 whole entry, looked up): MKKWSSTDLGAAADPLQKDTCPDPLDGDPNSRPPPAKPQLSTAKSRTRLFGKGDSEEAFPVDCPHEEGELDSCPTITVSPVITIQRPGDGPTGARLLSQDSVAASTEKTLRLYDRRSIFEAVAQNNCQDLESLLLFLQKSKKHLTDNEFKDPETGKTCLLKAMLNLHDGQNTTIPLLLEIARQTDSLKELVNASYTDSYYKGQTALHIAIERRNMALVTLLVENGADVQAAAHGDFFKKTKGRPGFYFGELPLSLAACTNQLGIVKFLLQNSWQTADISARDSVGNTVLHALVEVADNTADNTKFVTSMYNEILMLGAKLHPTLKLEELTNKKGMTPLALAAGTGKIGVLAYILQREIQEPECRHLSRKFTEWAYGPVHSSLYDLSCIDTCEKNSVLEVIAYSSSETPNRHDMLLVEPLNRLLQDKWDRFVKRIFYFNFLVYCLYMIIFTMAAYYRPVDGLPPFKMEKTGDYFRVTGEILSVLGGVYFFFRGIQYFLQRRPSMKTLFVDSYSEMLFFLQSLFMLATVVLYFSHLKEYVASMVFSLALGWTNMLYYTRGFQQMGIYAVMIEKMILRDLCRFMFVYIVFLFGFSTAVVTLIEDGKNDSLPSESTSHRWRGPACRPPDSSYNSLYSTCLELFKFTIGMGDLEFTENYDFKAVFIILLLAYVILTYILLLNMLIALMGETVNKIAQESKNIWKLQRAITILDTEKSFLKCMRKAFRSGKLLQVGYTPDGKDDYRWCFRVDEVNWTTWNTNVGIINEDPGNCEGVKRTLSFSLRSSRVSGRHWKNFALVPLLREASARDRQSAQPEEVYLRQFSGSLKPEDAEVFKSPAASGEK
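Cells expressing TRPV1 were dye-loaded with Fluo-8 and read kinetically: 10 s baseline, 3 min after compound (agonist portion), then 2 min after EC20 capsaicin (allosteric enhancer portion). Calcium-bound dye fluorescence at 480/520 nm.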
Menin MLL FP FL – inhibitors of human menin-MLL interaction, wild-type MLL peptide. Fluorescence polarization, fluorescein-MLL peptide displacement from menin. FP activity change, % at 61.4 µM. 290,000 tested, under 10 active. AID 1766; inconclusive = falling polarisation curve, or a change in total fluorescence; inactive = total fluorescence flat and polarisation flat or rising; no compound was filed as active; the % refers to the polarisation; negative = inhibition;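 note: % of control where 0% means no effect; inhibitors lower the polarisation; unlabelled MLL peptide was the positive control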
CtBP-E1A inh – CtBP/E1A binding inhibition; AID 651724; AlphaScreen GST-E1A/His-CtBP binding, 1536-well; stronger effect = lower value; control for the full effect not named in the record; actives 0.49% (n = 340,000); activity change, % (no concentration beside the values); in the data active means activity change below about -65%; inconclusive means about -30% to -65%; inactive means above about -30%; note: % is set by controls: 0 for no effect and ±100 for the full control effect; compound concentration not given in the record
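GST-E1A and His-tagged CtBP (125 nM each as 5X stock) were preincubated with pin-transferred compound for 2 h at 37 °C in the dark, then glutathione donor and nickel acceptor beads were added for 1 h before AlphaScreen reading.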
gsp ag – agonists of gsp mutant (McCune-Albright syndrome); gsp mutant cells, cAMP HTRF, 30 min; control for the full effect not named in the record; Potency, µM (doses to about 76.9 µM), without a hit: at the highest dose activation (cAMP increase), hits mostly activators; actives 0.13% (n = 340,000); active = well fitted activation curve with a large enough effect; inconclusive = small, poorly fitted or top-dose-only effect, or another doubt; inactive = no such curve, though single readings can be large or run the other way; cell line not stated here;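 note: phosphodiesterase inhibitor Ro 20-1724 added with compounds to block cAMP breakdown; potency is the fitted concentration of half-maximal effect; nearly all actives have a fitted effect of over 60% in size; about a fifth of the inactives were tested at one dose only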
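Cells in DMEM/10% FBS with G418 were pretreated with compounds in DMSO plus […] (300 uM stock) for 30 min at 37C. cAMP was measured by HTRF (cAMP-d2 plus anti-cAMP antibody-K) after 30 min at room temperature.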
gsp antag – antagonizes gsp, the McCune-Albright syndrome mutation; gsp-mutant cells, cAMP HTRF, 30 min; control for the full effect not named in the record; Potency, µM (top dose mostly 76.9 µM), for the others: at the top dose activity change, negative = inhibition, hits mostly inhibitors; actives 0.4% (n = 340,000); active = falling curve of any shape with a large fitted effect; inconclusive = falling curve, mostly with a smaller effect; inactive = flat or rising curve; cell line not stated here;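 note: intracellular cAMP measured with PDE inhibitor Ro 20-1724 present during compound exposure; potency is the fitted concentration of half-maximal effect; % is set by controls: 0 for no effect and ±100 for the full control effect; nearly all actives have a fitted effect of over 65% in size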
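Cells in G418 medium, seeded 16-24 h, 37C; buffer exchange to DPBS + 1 mM CaCl2, 0.5 mM MgCl2, 0.05% BSA; cpds in DMSO + […] (300 uM stock), 30 min 37C; HTRF cAMP detection.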
An asterisk follows results filed as active; u = inconclusive; x = no result given; & = joins results of further samples; [ ] = dose if it differs, or a comment.

SMILES	ClpP mod	Sfp PPTase inh	TRPV1 potentiator	Menin MLL FP FL	CtBP-E1A inh	gsp ag	gsp antag
COc1ccc(Cn2c(O)c(C=Nc3ccc(OC)cc3)c3ccccc3c2=O)cc1	-0.5%	6%	23	-1.2	4	-5%	3%
CSc1nnc(C2CCCN(CC(=O)Nc3ccccc3N3CCOCC3)C2)n1C(C)C (stereo not given)	x	7%	10	-4.2	1	10%[15.4 µM]	-19%
O=C(NCCN1CCOCC1)c1ccc(S(=O)(=O)Nc2ccccc2)cc1	0.3%	x	x	x	-2	-5%	17%
CC(=O)c1ccc(NC(=O)CN2CCN(c3ncccn3)CC2)cc1	-1.4%	u	4	-1.1	5	16%	10%
CCN1C(=O)C2C(C1=O)N1C(c3cccs3)C3C(=O)N(CC)C(=O)C3N1C2c1cccs1 (stereo not given)	-0.7%	9%	11	-4.2	-2	0%	-9%
CS(=O)(=O)N1CCc2cc(C(=O)N3CCN(c4ccc(F)cc4)CC3)ccc21	0.5%&1.5%	4%	-28	x	x	16%	6%
O=C(NC1CCCN(Cc2ccc(Cl)cc2)C1)c1c(F)ccc(F)c1F (stereo not given)	x	-6%	-8	2.0	0	-33%[inhibitor]	5%
CN(C)CCN(C(=O)C1CCN(S(=O)(=O)c2cccs2)CC1)c1nc2ccccc2s1	x	x	21	x	6	-1%[15.4 µM]	12%
Cn1c(N/N=C/c2cccs2)cc(=O)n(C)c1=O	-30%	-17%	-10	u	-16	3%	-23%
Cc1[nH]nc2c1C(c1ccoc1)C(C#N)=C(N)O2 (stereo not given)	-0.3%	12%	-4	4.7	-3	-2%[15.4 µM]	12%
Cc1ccc(-c2nnn(CC(=O)Nc3ccccc3N3CCOCC3)n2)cc1	-8.4%	6%	4	3.0	-23	5%	-9%
COc1cc(N=Nc2ccc3ccccc3c2)ccc1O	-0.6%	5%	-1	-1.3	u	14%	-1%
N#CCC1c2ccccc2CCN1C(=O)Nc1cccc(Cl)c1 (stereo not given)	-0.1%	19%	13	2.0	9	0%	1%
CCOC(=O)C1=C(N)Oc2c(oc(CO)cc2=O)C1c1ccc(Cl)cc1 (stereo not given)	x	10%	5	4.8	-18	21%	u
COc1ccc(/C=N/NC(=O)c2nnn(-c3nonc3N)c2-c2cccs2)cc1OC	-12%	0%	3	x	-12	18%	-13%
Nc1nonc1-n1nnc(C(=O)N/N=C/c2cc(Br)ccc2O)c1CNc1ccccc1	x	11%	0	x	-3	-2%[15.4 µM]	-27%
CC(C)n1nccc1N(Cc1ccc(C#N)cc1)S(=O)(=O)c1ccccc1	x	12%	-18	-1.5	6	5%	-16%
Cc1cccc(NC(=O)CSc2ccc3nnc(-c4cccnc4)n3n2)c1	1.3%	19%	0	3.6	u	24%[15.4 µM]	21%
Cc1cc(NC(=O)CCC(=O)N(Cc2ccco2)C(C(=O)NC2CCCC2)c2ccccc2C)no1 (stereo not given)	0.2%	1%	12	1.0	21	-18%	-15%
COc1cccc(/C=C/C(=O)OCC(=O)Nc2cc(S(=O)(=O)N3CCOCC3)ccc2C)c1	x	10%	11	-1.4	-16	25%[15.4 µM]	-18%
CCN1CCN(C(=O)CCc2nc3ccccc3n2-c2ccccc2)CC1	-9.0%	9%	-2	5.1	-1	0%[15.4 µM]	8%
CC1Nc2ccccc2C(=O)N1NS(C)(=O)=O (stereo not given)	x	15%	0	0.8	x	4%[15.4 µM]	11%
COc1ccc(C(=O)NC(C)c2cc(OC)c(OC)cc2Br)cc1 (stereo not given)	-0.2%	-4%	-5	3.3	0	22%	1%
O=C(NC1CCN(Cc2ccccc2)CC1)c1ccccc1	-0.3%	15%	-8	-4.9	x	8%	4%
COc1cccc(NS(=O)(=O)c2ccc3c(c2)CCCN3C(C)=O)c1	-1.8%	19%	10	-1.4	8	2%	-10%
CN(C(=O)CSc1nc(C2CC2)nc2ccccc12)c1nc(-c2ccccc2)cs1	-11%	-5%	u	3.9	-7	9%	-1%
CCc1ccc(NC(=S)N2CCC(NC(=O)c3ccccc3)CC2)cc1	x	17%	0	5.2	4	-12%	11%
O=C(CSc1ccccc1Cl)NC1CCCc2ccccc21 (stereo not given)	-1.7%	1%	-17	0.6	2	3%[15.4 µM]	0%
COc1cccc(/C=N/NC(=O)CC(=O)NCCc2ccc(OC)c(OC)c2)c1	-3.6%	24%	0	4.3	0	14%	-1%
COc1ccccc1/C=C1\SC(=S)N(CCC(=O)Nc2cccc(O)c2)C1=O	-0.8%	1%	-12	2.8	-19	15%	-27%
CCCCC1=CC2=C(c3ccco3)C(=O)C(C)(OC(=O)c3ccc(OC)cc3)C(=O)C2=CN1CCCOC(C)C (stereo not given)	0.6%	-15%&-18%	-6	-13[11.7 µM]	u	x	0%
COc1ccc(-n2nc(C(=O)NCCCN3CCOCC3)c3ccccc3c2=O)c(OC)c1	-0.6%	6%	0	1.9	7	-15%	8%
CC(C)(C)OC(=O)N1CCC(C(=O)Nc2ccc3c(c2)CCC3)CC1	-2.7%	x	-17	x	-24	12%	-4%
CCc1nnc(NC(=O)C2CCCO2)s1 (stereo not given)	-1.8%	5%	1	1.3	-12	-54%[inhibitor]	9%
CC(=O)c1c(C)n(C)c2ccc(O)cc12	-0.4%	-2%	13	5.9	-8	9%	-2%
CCn1nc(C(=O)NCc2nnc3ccccn23)c2ccccc2c1=O	0.9%	x	6	x	5	u	7%
CC(=O)NC(CC(=O)Nc1cccc(S(=O)(=O)N2CCCCC2)c1)c1ccccc1 (stereo not given)	0.6%	6%	2	1.8	0	u	-8%
COc1ccc(OCCSc2nnc(-c3cccnc3)n2N)cc1	-2.4%	23%	3	3.9	0	u	8%
COc1cccc(NC(=O)Nc2ccc3c(c2)N(C)C(=O)CS3)c1	-0.9%	-1%	-14	3.5	-8	-1%	u
CCCNC(=O)c1ccccc1NC(=O)c1ccccc1N(C)S(=O)(=O)c1ccccc1	-6.9%	7%	-20	6.3	-18	-26%	-5%
CCN1CCN(S(=O)(=O)c2ccc(Cl)c(C(=O)Nc3ccc(OC(F)F)cc3)c2)CC1	-6.6%	-9%	-1	x	9	-22%	2%
Cc1ccc(NC(=O)C2CCCN2S(=O)(=O)c2ccc3c(c2)CCC(=O)N3)cc1Cl (stereo not given)	-3.4%	14%	x	3.3	5	-12%	-8%
COc1cccc(-c2cc(C(F)(F)F)c3c(N)c(C#N)sc3n2)c1	x	9%	-1	-3.1	x	x	x
CCN(CC)CCNC(=O)C1(O)c2cc(Br)ccc2NC(=O)N1c1cccc(OC)c1 (stereo not given)	5.2%	10%	6	12	4	20%	16%
NN1C(=O)NC(c2ccccc2)(c2ccccc2)C1=O	-3.1%	16%	3	1.0	-16	8%	3%
COc1ccc(C2C3=C(CCCC3=O)Nc3nc(SCc4ccc(C(=O)O)cc4)nn32)cc1OC (stereo not given)	-21%	3%	5	-0.9	1	-52%[inhibitor]	8%
Cc1sc(-c2ccncc2)nc1OC(=O)c1ccccc1	-7.8%	-11%	-10	u	2	u	-11%
CCC(=O)Nc1cccc(NC(=S)NC(=O)c2cc3ccccc3o2)c1	x	3%	-5	0.1	3	-13%[15.4 µM]	6%
CSc1ccc(C(=S)N2CCCC2)cc1	-2.2%	50µM*	-1	5.9	-21	11%	8%
CCCn1c(O)c(CN2CCCC(C)C2)c(C)c(C#N)c1=O (stereo not given)	-0.4%	-13%	14	u	5	11%[15.4 µM]	-3%
CC(C)(CNC(=O)C1c2ccccc2-c2ccccc21)N1CCOCC1	x	11%	-9	3.2	0	-10%	3%
N#Cc1ccc(C(=O)OCC(=O)N2CCCC2)cc1	x	7%	-5	-5.6	11	-23%[15.4 µM]	6%
O=C(Nc1nnc(-c2ccco2)s1)c1ccccc1	-5.4%	45µM*	-5	8.4	1	-2%	9%
COCCn1c(C)cc(C(=O)CN2C(=O)NC3(CCCCCC3)C2=O)c1C	-0.4%	x	-1	x	-3	1%	3%
CCc1ccc2c(c1)C(C)=CC(C)(C)N2	32µM*	-12%	5	3.6	-6	16%	1%
CCC1(CC)C(=O)C2=C3C1[C@H](C(=O)OC)CC(C(=O)OC)C[C@H]3[C@H]1C(=O)N(c3ccccc3)C(=O)[C@H]1[C@H]2C (stereo not given in full)	-5.7%	-9%	x	8.7	-2	-5%	3%
C/C(=N\NC(=O)c1cc2ccccc2cc1O)c1cccs1	-1.3%	-8%	u	u	-14	-1%[15.4 µM]	-5%
C/C(=N\NC(=O)c1ccccc1OCc1ccc(F)cc1)c1ccccn1	2.2%	x	-14	x	x	-25%	-13%
O=C1NC(=Nc2ccccc2)c2ccc([N+](=O)[O-])cc21	-1.7%	2%	5	2.7	1	-3%	13%
C/C(=N\NC(=O)c1ccncc1)c1ccc(N(C)C)cc1	x	u	-6	12	1	13%[15.4 µM]	-5%
New compounds follow:
SMILES	ClpP mod	Sfp PPTase inh	TRPV1 potentiator	Menin MLL FP FL	CtBP-E1A inh	gsp ag	gsp antag
CCOc1ccc(NC2OC(C)C(O)C(O)C2O)c([N+](=O)[O-])c1 (stereo not given)	x	3%	-8	-6.1	x	1%[15.4 µM]	4%
CCOC(=O)c1c(NC(=O)CSc2nnc(-c3cccnc3)o2)sc2c1CCC2	-1.0%	-12%	20	1.3	-1	-41%[inhibitor]	-9%
Nc1c2c(nn1-c1ccccc1)CCC2	x	13%	4	-6.4	-22	12%	9%
CC(C)Nc1nnc(SCC(=O)N2CCN(C(=O)c3ccco3)CC2)s1	0.3%	x	7	x	0	-3%	-2%
O=C(NCCN1CCN(c2ccccc2)CC1)C1(S(=O)(=O)c2ccc(Cl)cc2)CC1	0.5%	3%	23	6.3	1	u	0%
O=C1CN(C(=O)COC(=O)CNS(=O)(=O)/C=C/c2ccccc2)c2ccccc2N1	-0.4%	22%	-8	3.2	x	19%	-11%
